Source: PubChem BioAssay (National Center for Advancing Translational Sciences (NCATS))
TRPML1 inh = inhibitors of human TRPML1 channel; hit rate 0.02% among 390,000; Q9GZU1; activity change, negative = inhibition, % (test concentration not listed); TRPML1-inducible cells, Ca2+ dye fluorescence, FDSS; stronger effect = lower value; inhibition of EC80 agonist-evoked calcium signal; in the data active means activity change below about -50%; inconclusive means about -30% to -50%; inactive means above about -30%;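 further: stimulus is agonist 54-4 at its EC80 concentration; on the % scale 0 is the no-effect control and ±100 the full control effect; compound concentration not given in the record; the text of the record puts the active cut at -80%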
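Tet-induced TRPML1-DL cells loaded with Ca8 no-wash calcium dye were read kinetically on FDSS. Compound addition was followed by EC80 agonist 54-4 (4 uM final); inhibition was read over 110 s.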
gsp agonist = agonists of gsp mutant (McCune-Albright syndrome); gsp mutant cells, cAMP HTRF, 30 min; control for the full effect not named in the record; Potency, µM (top dose mostly 76.9 µM), for inactives: at the top dose activation (cAMP increase), usual class: activators; hit rate 0.13% among 340,000; AID 624287; active = well fitted activation curve with a large enough effect; inconclusive = small, poorly fitted or top-dose-only effect, or another doubt; inactive = no such curve, though single readings can be large or run the other way; cell line not stated here;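 further: phosphodiesterase inhibitor Ro 20-1724 added with compounds to block cAMP breakdown; potency means the concentration at half of the fitted maximal effect; nearly all actives have a fitted effect of over 60% in size; about a fifth of the inactives were tested at one dose only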
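Cells in DMEM/10% FBS with G418 were pretreated with compounds in DMSO plus […] (300 uM stock) for 30 min at 37C. cAMP was measured by HTRF (cAMP-d2 plus anti-cAMP antibody-K) after 30 min at room temperature.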
gsp antag = antagonizes gsp, the McCune-Albright syndrome mutation. gsp-mutant cells, cAMP HTRF, 30 min; control for the full effect not named in the record. Potency, µM (doses to about 76.9 µM), for inactives: at the top dose activity change, negative = inhibition, hits mostly inhibitors. hit rate 0.4% among 340,000. AID 624288; active = falling curve of any shape with a large fitted effect; inconclusive = falling curve, mostly with a smaller effect; inactive = flat or rising curve; cell line not stated here;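 further: intracellular cAMP measured with PDE inhibitor Ro 20-1724 present during compound exposure; potency means the concentration at half of the fitted maximal effect; on the % scale 0 is the no-effect control and ±100 the full control effect; nearly all actives have a fitted effect of over 65% in size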
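Cells, 2000/well, grown 16–24 h in DMEM 10% FBS with 0.5 mg/ml G418, then compounds plus […] (300 uM addition stock), 30 min at 37C. cAMP read by HTRF (cAMP-d2 and anti-cAMP antibody-K in lysis buffer) after 30 min RT.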
TRPV1 PAM = enhances activation of the human vanilloid receptor TRPV1; Q8NER1; TRPV1-expressing cells, Fluo-8 calcium influx, capsaicin EC20 potentiation; host cell line not named in the record; control for the full effect not named in the record; potentiation, % at 8.33 µM; hit rate 0.02% among 320,000; AID 540277; active means potentiation above 80%; inconclusive means 30% to 80%; inactive means below 30%; further: 0% is about no effect
Target sequence (Q8NER1 whole entry, looked up): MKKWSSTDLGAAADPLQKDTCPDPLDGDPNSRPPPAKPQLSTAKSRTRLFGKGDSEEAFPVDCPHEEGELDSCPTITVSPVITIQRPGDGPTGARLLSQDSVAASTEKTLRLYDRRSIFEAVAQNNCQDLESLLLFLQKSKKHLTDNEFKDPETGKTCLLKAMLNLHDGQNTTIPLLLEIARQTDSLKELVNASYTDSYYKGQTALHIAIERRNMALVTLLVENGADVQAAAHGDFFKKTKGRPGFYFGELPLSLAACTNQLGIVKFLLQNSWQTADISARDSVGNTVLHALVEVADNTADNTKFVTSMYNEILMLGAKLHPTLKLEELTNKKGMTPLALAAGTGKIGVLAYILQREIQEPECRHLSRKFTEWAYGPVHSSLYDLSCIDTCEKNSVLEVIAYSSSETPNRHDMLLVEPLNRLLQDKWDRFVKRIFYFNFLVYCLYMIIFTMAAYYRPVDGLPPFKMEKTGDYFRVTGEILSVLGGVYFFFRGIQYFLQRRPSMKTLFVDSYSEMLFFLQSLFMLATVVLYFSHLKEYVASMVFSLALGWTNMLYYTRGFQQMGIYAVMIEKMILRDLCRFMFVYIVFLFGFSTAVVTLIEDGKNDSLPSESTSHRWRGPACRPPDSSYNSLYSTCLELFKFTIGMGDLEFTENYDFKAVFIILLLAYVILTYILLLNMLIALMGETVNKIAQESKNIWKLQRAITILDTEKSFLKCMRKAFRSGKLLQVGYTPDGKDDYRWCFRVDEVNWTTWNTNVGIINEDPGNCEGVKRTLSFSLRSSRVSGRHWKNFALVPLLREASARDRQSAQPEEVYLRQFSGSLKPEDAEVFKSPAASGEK
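Cells expressing TRPV1 were dye-loaded with Fluo-8 and read kinetically: 10 s baseline, 3 min after compound (agonist portion), then 2 min after EC20 capsaicin (allosteric enhancer portion). Calcium-bound dye fluorescence at 480/520 nm.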
ClpP mod = qHTS Assay for Activators of ClpP. ATP-dependent Clp protease proteolytic subunit (Bacillus subtilis (strain 168)), P80244. purified B. subtilis ClpP, FRET peptide cleavage, 20 min. Potency, µM (top dose mostly 57.5 µM), without a hit: at the highest dose activity change, negative = active. hit rate 1.9% among 340,000; active = well fitted falling curve with a large enough effect; inconclusive = small, poorly fitted or top-dose-only effect; inactive = no such curve, though single readings can be large or run the other way; further: potency means the concentration at half of the fitted maximal effect; the source files actives as falling curves though it sought activators and does not explain the sign; nearly all actives have a fitted effect of over 65% in size; many hits overshoot -100%
Target sequence (P80244 whole entry, looked up): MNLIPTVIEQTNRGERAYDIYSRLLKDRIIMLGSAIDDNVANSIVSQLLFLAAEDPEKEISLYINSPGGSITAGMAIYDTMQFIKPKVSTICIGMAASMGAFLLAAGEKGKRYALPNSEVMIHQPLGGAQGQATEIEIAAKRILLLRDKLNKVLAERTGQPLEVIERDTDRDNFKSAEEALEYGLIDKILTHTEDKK
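Purified B. subtilis ClpP, 10 microg/mL final in Tris/HCl pH8 with KCl, BSA, glycerol and Tween-20, cleaved an Abz/nitrotyrosine-quenched decapeptide. Fluorescence (ex 320, em 430) was read at 0 and 20 min at room temperature. Delta was normalized to 5.8 microM ADEP and DMSO/no-enzyme controls.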
Menin-MLL FL inh = inhibitors of human menin-MLL interaction, wild-type MLL peptide; FP activity change, % at 61.4 µM; Fluorescence polarization, fluorescein-MLL peptide displacement from menin; 290,000 tested, under 10 active; inconclusive = falling polarisation curve, or a change in total fluorescence; inactive = total fluorescence flat and polarisation flat or rising; no compound was filed as active; the % refers to the polarisation; negative = inhibition;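 further: % of control where 0% means no effect; inhibitors lower the polarisation; unlabelled MLL peptide was the positive control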
Sfp PPTase inh = inhibitors of Bacillus subtilis Sfp phosphopantetheinyl transferase; Q9F4F7; Biochemical Sfp PPTase activity, qHTS; Potency, µM, for the others: max response, negative = inhibition, most hits filed as inhibitors; hit rate 3.5% among 310,000; active means well fitted inhibition curve with a large enough effect; inconclusive means small, poorly fitted or top-dose-only effect, or another doubt; inactive means no such curve, though single readings can be large or run the other way;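 further: the enzyme is Sfp with the accession as filed and its product quenches rhodamine fluorescence; potency means the concentration at half of the fitted maximal effect; 0% = enzyme reaction without inhibitor and -100% = no enzyme wells; top concentration of the series not given in the record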
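Reaction rates are the 30-min fluorescence difference (ex 525, em 598 nm) in wells containing 15 nM Sfp, 5 uM rhodamine-CoA and 12.5 uM BHQ-2-YbbR at pH 7.6 with 10 mM MgCl2.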
The depositor's hits bear a star; ? = inconclusive; nt = no result given; & = joins results of further samples; [ ] = dose if it differs, or a comment.

SMILES	TRPML1 inh	gsp agonist	gsp antag	TRPV1 PAM	ClpP mod	Menin-MLL FL inh	Sfp PPTase inh
CN1C2CCC1CC(NC(=O)CSc1ccc(C(C)(C)C)cc1)C2 (stereo not drawn)	31	3%	7%	-1	-1.4%	3.0	4%
Cc1cc(NC(=O)Cc2cc(F)cc(F)c2)no1	-4	0%	5%	-11	-0.1%	0.8	3%
COc1ccc(CCNC(=O)COC(=O)c2cc(S(=O)(=O)NCc3ccccc3)ccc2O)cc1OC	15	-10%[15.4 µM]	-10%	11	nt	-1.5	-9%
CN1CCC(OC(=O)COc2ccc(Cl)cc2Cl)CC1	-17	0%[15.4 µM]	16%	-8	0.5%	0.7	-5%
Cn1c(-c2ccccc2)c(C#Cc2ccc(N)cc2)c2ccccc21	-19	13%	0%	nt	3.9%	nt	nt
Cc1nn2c(SCC(=O)c3cccs3)cc(C(C)(C)C)nc2c1-c1ccccc1	3	1%	2%	1	-3.1%	1.3	7%
CCOc1ccc(-n2c(=S)sc3c(=O)[nH]c(SCC(=O)NCC4CCCO4)nc32)cc1 (stereo not drawn)	26	-1%	-10%	6	1.5%	3.7	6%
CC(C)N1CCc2c(sc(NC(=O)C3CCCCC3)c2C(N)=O)C1	-13	-3%	-2%	15	-2.7%	-2.3	9%
Cc1[nH]n(-c2ccc(Br)cc2)c(=O)c1/C=N/NC(=O)c1ccccc1	5	-38%[inhibitor]	-11%	-1	1.0%	-0.7	16%
COc1ccc(CCNS(=O)(=O)c2ccc(-n3cnnn3)c(OC)c2)cc1OC	-5	-23%	1%	-17	0.8%	nt	21%
O=C(Nc1ccc2c(c1)OCO2)C1CC(=O)N(c2ccccc2)C1 (stereo not drawn)	-6	1%	-2%	-18	nt	2.3	-4%
Cc1occc1C(=O)N/N=C/C=C/c1ccc(N(C)C)cc1	-8	23%	-28%	0	-0.5%	?	2%
CCC(=O)OC1CSc2nc3ccccc3n2C1 (stereo not drawn)	6	?	9%	5	-0.8%	4.4	16%
COc1ccc(CN(CC2CCC(C(=O)O)CC2)C(=S)Nc2cccc(C)c2)cc1 (stereo not drawn)	-10	4%[15.4 µM]	-20%	-2	nt	-8.9	7%
CC(NC(=O)COc1ccc(/C=N/NS(=O)(=O)c2ccccc2)cc1)c1ccccc1 (stereo not drawn)	-3	4%	-17%	16	0.9%	3.2	8%
COC(=O)c1c(N)sc2c1CC(C)(C)OC2	69	?	8%	19	-0.7%	-0.9	8%
c1ccc(Sc2ccccn2)cc1	6	-3%[15.4 µM]	11%	nt	nt	nt	nt
CC(=NNC(=S)Nc1ccccc1)c1ccccn1	3	?	nt	nt	-0.2%	nt	nt
COc1cc(C2C(C#N)=C(N)Oc3n[nH]c(-c4ccccn4)c32)cc(OC)c1OC (stereo not drawn)	-1	8%	-9%	-2	0.7%	0.4	25%
N#Cc1ccc(OCC(=O)NCCN2CCOCC2)cc1	6	-26%	10%	2	-5.1%	nt	nt
CC(C)(C)c1ccc(OC2=CS(=O)(=O)c3ccccc32)cc1	87	-17%	-20%	29	1.3%	-0.3	5%
CCc1nnc(NC(=O)CSc2nnc(-c3ccoc3C)n2CC(C)C)s1	2	11%	-8%	7	-1.0%	0.9	-9%
CCOc1ccc(-n2c(SCC(=O)N3CCC(C(=O)O)CC3)nc3ccccc3c2=O)cc1	0	-8%[15.4 µM]	1%	-2	nt	2.1	4%
O=C(Cc1ccccc1)Nc1ccccc1CO	-6	2%	10%	2	1.6%	0.1	15%
CCOc1cc(NS(C)(=O)=O)c(OCC)cc1NC(=O)c1cccs1	28	-49%[inhibitor]	-14%	-5	-1.4%	-1.0	3%
SMILES	TRPML1 inh	gsp agonist	gsp antag	TRPV1 PAM	ClpP mod	Menin-MLL FL inh	Sfp PPTase inh
CCN1C(=O)[C@H]2[C@@H](c3ccc(-c4ccccc4)c(OC)c3)N[C@@](Cc3ccccc3)(C(=O)OC)[C@H]2C1=O	-9	-43%[inhibitor]	7%	25	-0.3%	nt	nt
CCOc1ccc(CNC2CCCc3ccccc32)cc1 (stereo not drawn)	-1	0%	8%	10	-2.3%	-2.6	-7%
CC(C)CN(C(=O)CSc1nncs1)c1c(N)n(CC(C)C)c(=O)[nH]c1=O	15	-1%	5%	9	-1.9%	0.8	-5%
O=C(NCCCn1ccnc1)/C(=C\c1cccs1)NC(=O)c1ccccc1	-10	24%	8%	10	-0.8%	2.8	6%
O=C(CSc1nc2ccccc2c(=O)n1CC1CCCO1)NCc1ccc2c(c1)OCO2 (stereo not drawn)	-10	-11%[15.4 µM]	-6%	-24	nt	3.9	13%
COc1ccc(S(=O)(=O)NCC(=O)N(Cc2ccco2)C(C(=O)NC(C)(C)C)C(C)C)cc1 (stereo not drawn)	1	2%	5%	2	nt	nt	9%
Nc1c(C(=O)c2ccc(Br)cc2)oc2ccccc12	-1	?	0%	8	2.7%	6.5	3%
CC(C)(CNC(=O)c1sc2cc(F)ccc2c1Cl)N1CCOCC1	2	-9%	-9%	-20	-1.5%	0.2	-8%
COc1cccc(-c2nn(-c3ccccc3)cc2/C=C(/NC(=O)c2ccccc2)C(=O)O)c1	-22	0%[15.4 µM]	-8%	5	nt	4.0	19%
O=C(Cn1c(CN2CCCCC2)nc2ccccc2c1=O)NCc1ccco1	5	0%	-11%	0	2.2%	1.8	4%
CN1CCC(C2(O)c3ccccc3CSc3sccc32)CC1 (stereo not drawn)	-3	-22%	-4%	7	4.1%	-1.3	-6%
CCOC(=O)C1CCCN(C/C(O)=C(\C#N)c2nc(-c3ccccc3)cs2)C1 (stereo not drawn)	-7	-13%	?	3	0.3%	?	5%
O=C(COc1ccc(Cl)cc1)N1N=C(c2cccs2)CC1c1ccco1 (stereo not drawn)	37	5%[15.4 µM]	-19%	nt	nt	nt	nt
CCC(C)NC(=S)NNC(=O)c1ccc(C(C)(C)C)cc1 (stereo not drawn)	-7	-16%	3%	-11	14%	-1.2	9%
CCOC(=O)Cc1nnc2c(Nc3ccc(C)cc3)nc3nonc3n12	9	1%	10%	4	-1.9%	0.2	6%
COc1ccc(C2CC(O)(c3ccccc3)Oc3c(C)ccc(C)c32)cc1 (stereo not drawn)	-15&-3	4%	-6%	17	-2.8%	2.9&-1.3	14%&15%
O=C(Cn1ccc([N+](=O)[O-])n1)NCc1ccco1	-13	-41%[inhibitor]	6%	-6	-0.1%	2.3	9%
CC(=O)OCC(=O)Nc1ccc(C(C)=O)cc1	-5	0%	9%	-7	-4.7%	0.3	5%
CC(C)NC(=O)COC(=O)c1cc(F)c(F)cc1Cl	-4	21%	4%	-10	0.1%	1.9	12%
CCOC(=O)C1CCN(C(=O)Cc2ccc(-c3ccccc3)cc2)CC1	3	-5%	1%	-51	1.1%	4.7	18%
COCCn1cc(C(=S)N2CCCCC2)c2ccccc21	8	7%[15.4 µM]	nt	-4	nt	0.9	-1%
Cc1ccn2c(Cc3ccccc3)c(-c3ccc(F)cc3)nc2c1	54	?	nt	nt	4.9%	nt	nt
COc1ccc(NC(=O)CSc2nccn2Cc2ccco2)cc1OC	-2&-4	2%	5%	1	-0.1%&2.9%	nt	11%
COc1ccc(NC(=O)CCS(=O)(=O)c2ccccc2)c(OC)c1	-10	18%	-4%	1	-0.2%	-0.9	8%
Cc1ccc[n+](CC(=O)c2cc3ccccc3oc2=O)c1	-4	-48%[inhibitor]	0%	29	?	2.5	3%
SMILES	TRPML1 inh	gsp agonist	gsp antag	TRPV1 PAM	ClpP mod	Menin-MLL FL inh	Sfp PPTase inh
O=C(CNc1ccc(Br)cc1)Nc1ccc(S(=O)(=O)N2CCCC2)cc1	-17	-52%[inhibitor]	-8%	?	-1.7%	nt	nt
CCOC(=O)c1cn(Cc2ccc(Cl)cc2Cl)c2cc(C)nn2c1=O	6	-5%[15.4 µM]	4%	?	1.0%	3.7	8%
COc1cc(-c2nnc(-c3cccnc3)o2)cc(OC)c1OC	0	3%	0%	2	-4.3%	8.1	14%
O=C(Nc1ccc(F)c([N+](=O)[O-])c1)C(=O)c1c(O)[nH]c2ccccc12	53	-22%	-9%	-4	nt	-6.6	20µM*
O=C(OCC(=O)N1CCCc2ccccc21)c1ccccc1OC(F)F	7	-6%	1%	nt	nt	nt	nt
COc1ccc(N2C(=O)CC(NNc3nc4ccccc4s3)C2=O)cc1 (stereo not drawn)	8	15%	-1%	-17	nt	0.4	-5%
CC(C)c1ccc(/C=C(/C#N)c2nnc(NC(=O)c3ccccc3)s2)cc1	23	1%[15.4 µM]	-18%	-18	-0.8%	nt	2%
FC(F)(F)c1ccccc1-n1c(-c2cnccn2)n[nH]c1=S	-7	7%	-2%	1	nt	1.9	?
S=C(Nc1ccc(Br)cc1)N1CCn2cccc2C1c1cccnc1 (stereo not drawn)	13	-7%[15.4 µM]	-21%	2	nt	2.8	10%
Cc1ccc2[nH]c(=O)c(CN(Cc3ccco3)C(=O)N3CCOCC3)cc2c1	19	-18%[15.4 µM]	?	-3	nt	-0.1	11%
CN1CCN(S(=O)(=O)c2ccc(SCCOc3ccc(Cl)cc3)nc2)CC1	-7	-2%	8%	-7	0.8%	nt	nt
CCOc1ccc2nc(N(CCN(C)C)C(=O)c3ccc4ccccc4c3)sc2c1	-7	-26%	-6%	0	-8.2%	nt	79µM*
O=C(COC(=O)C1COc2ccccc2O1)NC1CCCCC1 (stereo not drawn)	-17	14%[15.4 µM]	-3%	nt	-1.4%	nt	nt
CC1CCc2nc(NC(=O)CN3CCN(c4ccccc4)CC3)sc2C1 (stereo not drawn)	-1	-31%[inhibitor]	5%	-6	4.4%	3.6	7%
Nc1nc(NCC2CCCO2)nc(Nc2ccccc2F)c1[N+](=O)[O-] (stereo not drawn)	-12	34%	12%	-11	2.5%	0.1	7%
COc1ccc(CN2C(=O)c3cccnc3C2=O)cc1S(=O)(=O)N(C)c1ccc(C)cc1	16	-28%	-9%	12	-1.9%	-1.1	-3%
CCc1ccccc1NC(=O)CCS(=O)(=O)c1ccc(Br)cc1	-13	-39%[inhibitor]	5%	-17	-0.2%	-1.2	22%
